Screening results from PubChem.
Sa growth 42C: S. aureus growth inhibition at 42 and 30 °C, primary screen, LtaS inhibitor project, RN4220, two temperatures; OD600, 20 h, 42 °C; active compounds read low; relative growth, % (test concentration not listed); 0.53% of 170,000 active; AID 720641, 2013;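 active means growth at 42 °C up to 50% and 20 or more points under that at 30 °C, or under 10% at both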;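 further: 300 nL library stock went into each well; scaled to the means of positive and negative controls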
HCMV UL50-53 inh: inhibitors of HCMV UL50-UL53 interaction, biochemical, HTRF | HCMV UL50-UL53 nuclear egress complex (human cytomegalovirus) | normalized percent inhibition | inhibition, % (no concentration beside the values) | 0.15% of 190,000 active | AID 1918969, 2023;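 active means both replicates at 50% or more, plus weaker picks with an unusually low signal ratio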;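 further: stock transfer was 100 nL into about 20 µL; 0% = negative control wells and 100% = wells with untagged competitor protein; inactives centre near -12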
GIV Gai3 FP: inhibitors of GIV peptide binding to Galpha-i3, primary screen, biochemical, fluorescence polarization, FITC-GIV GBA peptide, rat Galphai3. Guanine nucleotide-binding protein G(i) subunit alpha-3 (Rattus norvegicus), P08753. 90 min; active compounds read low; scaled: aluminum fluoride 0%, vehicle 100%. percent of control (FP), % (concentration not given with the values). 0.42% of 210,000 active. AID 1224905, 2016;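 active means replicate mean at 85% of control or lower, very high polarization wells dropped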;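 further: wells of about 15 µL received 100 nL stock; the first replicate is given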
Target sequence (P08753 whole entry, looked up): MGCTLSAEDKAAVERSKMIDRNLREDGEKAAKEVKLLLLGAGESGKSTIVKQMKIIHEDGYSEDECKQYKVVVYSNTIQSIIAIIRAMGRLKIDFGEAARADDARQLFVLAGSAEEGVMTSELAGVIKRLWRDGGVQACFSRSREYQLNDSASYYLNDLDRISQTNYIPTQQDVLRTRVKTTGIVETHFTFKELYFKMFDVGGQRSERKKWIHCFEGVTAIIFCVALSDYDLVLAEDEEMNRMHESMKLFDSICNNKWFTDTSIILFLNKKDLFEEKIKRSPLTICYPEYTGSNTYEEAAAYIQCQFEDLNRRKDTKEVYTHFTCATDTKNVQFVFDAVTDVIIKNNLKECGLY
Sa growth 42C second temp: further read-out of Sa growth 42C, marked with its call; relative growth, %; measured here: growth at 30 °C;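 optical density after 20 h as mean of two plates; 100% = untreated growth and lower means inhibition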
The depositor's hits bear a star; . = no result given; & = joins results of further samples.

Fields – Sa growth 42C second temp, GIV Gai3 FP, Sa growth 42C, HCMV UL50-53 inh
CCc1cc2c(NC(C)C(=O)O)ncnc2s1 (stereo not drawn)
    89, ., 119, -30
COc1cc(NS(=O)(=O)c2c(C)nc3sc(C)c(C)n3c2=O)cc(OC)c1
    91, 106, 103, .
CCc1ccc(C2CC(=O)Nc3n[nH]c(-c4ccccc4)c32)cc1 (stereo not drawn)
    82, 103, 106, -15
CS(=O)(=O)c1ccc(Cl)c(NC(=O)CN2CCCSc3ccccc32)c1
    39, ., 59, -36
COC(=O)c1nc2n(n1)C(c1cc(OC)ccc1OC)C(C(=O)Nc1ccc(C)cc1C)=C(C)N2 (stereo not drawn)
    90, 104, 91, -9
CCCC(=O)Nc1nnc(CCC)s1
    82, 103, 137, -29
Cc1cc(N2CCC(C)CC2)nc2ccc(NC(=O)CCC(=O)N3CCN(c4ccccn4)CC3)cc12
    ., 106, ., -3
CC(=O)Nc1ccc(C(=O)CSc2nnc(-c3ccccc3)n2-c2ccccc2)cc1
    77, 106, 103, -18
Cc1ccc(CCNC(=O)c2ccc3c(c2)nc2n3CCC(C)C2)cc1 (stereo not drawn)
    88, 103, 85, .
Cc1cccc(N2CCN(C(=O)C3CCN(c4ccc(N5CCOCC5)nn4)CC3)CC2C)c1 (stereo not drawn)
    ., 98, ., -47
CCCNC(=O)c1cc2sc(Cl)cc2n1C
    89, 99, 104, -24
CCc1ccc(NC(=O)C(NS(=O)(=O)c2ccc3c(c2)CCCC(=O)N3)C(C)C)cc1 (stereo not drawn)
    ., 107, ., -27
Nc1nc(CN2CCOCC2)nc2ccccc12
    100, ., 98, -6
CC1CCCC(C)N1C(=O)Cn1cnc(NC(=O)c2cc(-c3ccc(F)cc3)no2)n1 (stereo not drawn)
    76, 102, 95, -14
Cc1cc(C)c2cc(C(=O)Nc3ccc4c(c3)OCO4)[nH]c2c1
    92, 103, 103, -28
COc1ccc(OCCSc2cccc[n+]2[O-])cc1
    92, ., 76, -11
COc1cc(C(=O)Nn2c(-c3cccc(Cl)c3)nc3ccccc3c2=O)cc(OC)c1OC
    ., 115, ., -5
Cc1ccc(Nc2cc(C)nc3nc(C)nn23)cc1
    ., 113, ., -28
CCOC(=O)C1=C(N)Oc2n[nH]c(C)c2C1c1cccs1 (stereo not drawn)
    72, ., 105, -45
CC(C)Cc1ccc(S(=O)(=O)Nc2ncn(Cc3ccc(Cl)cc3)n2)cc1
    ., 99, ., -17
COc1ccccc1-c1nn(CCC(=O)Nc2ccc(C)cc2)c2nc(C)cc(C)c12
    74, 106, 107, -3
O=C(NCCc1ccc(Cl)cc1)c1cccc(-n2cnc3cccnc32)c1
    ., 103, ., 2
CCOc1ccccc1NC(=O)Cn1c(=O)n(Cc2ccccc2)c(=O)c2c1c1cc(C)ccc1n2C
    83, 101, 109, .
CCN(CC)c1n[nH]nc1-c1cccc(Cl)c1
    97, ., 92, -3
O=C(Nc1cccc(Cl)c1)N1CCSc2ccccc21
    133, 104, 120, .
NC(=O)c1cc(-c2cccnc2)no1
    104, 101, 94, -22
COC(=O)C1CN(C(=O)c2ccc(C)cc2)c2ccccc2O1 (stereo not drawn)
    95, 109, 106, -10
O=C1COc2cc(S(=O)(=O)N3CCN(C(=O)c4cc5ccccc5[nH]4)CC3)c(Cl)cc2N1
    ., 103, ., -31
CCCN(C(=O)c1ccc(S(=O)(=O)N2CCCC2)cc1)C1CCS(=O)(=O)C1 (stereo not drawn)
    90, ., 93, -12
O=C1CSCC(=O)N1c1ccc(-n2nc(C(F)(F)F)cc2C(F)(F)F)cc1
    110, 99, 102, 1
COc1ccccc1OC(=O)NC(C)C
    93, 104, 83, 8
Cc1ccc(NC(=O)CCNS(=O)(=O)c2cccc3nsnc23)cc1
    89, 101, 89, -100
CCN1C(=S)NC2c3cc(C)ccc3OC13CCCC23 (stereo not drawn)
    90, 100, 99, .
Cc1nc2c(c(C)c1CCC(=O)NCCc1ccccc1)c(=O)n(C)c(=O)n2C
    ., 99, ., -35
OC1CCCCC1Sc1nc2ccccc2s1 (stereo not drawn)
    100, 103, 115, -7
O=C(N/N=C/c1ccc(O)c(O)c1O)c1ccccc1-n1cccc1
    44, ., 58, -48
COc1ccc(C2C(C#N)C(C#N)N3CCCN23)cc1 (stereo not drawn)
    97, 103, 95, -17
CC1C(=O)N(c2ccc(Cl)c(Cl)c2)C(=N)N1c1nc(N(C)C)nc(N(C)C)n1 (stereo not drawn)
    ., 100, ., -19
COc1ccc(N2C(=O)CSC2c2cc(Br)ccc2OC)cc1 (stereo not drawn)
    ., 100, ., -13
COc1ccccc1NC(=O)CSc1ncc2c(n1)-c1cc(Cl)ccc1N(C)S2(=O)=O
    80, 103, 98, .
O=C(NCCOc1nc(N2CCOCC2)nc(N2CCOCC2)n1)Nc1ccccc1
    95, 108, 92, 0
Cc1cc(C(=O)OCC(=O)Nc2ccccc2C(=O)NC(C)c2ccccc2)no1 (stereo not drawn)
    89, ., 97, -3
Cc1cc(C)n(-c2nc3ccccc3nc2N2CCCC2)n1
    96, 101, 83, -32
N#CC(c1cccs1)c1ncc(C(F)(F)F)cc1Cl (stereo not drawn)
    ., 102, ., -16
COc1ccc(C2Nc3ccccc3C(=O)N2Cc2ccco2)cc1COc1ccccc1F (stereo not drawn)
    ., 107, ., -8
CC(C)(C)C(=O)NC1=C(C(=O)c2ccccc2)N(Cc2ccccc2)S(=O)(=O)c2ccccc21
    ., 104, ., -21
CCOCCCNc1nc2ccccc2n2c(CC)nnc12
    99, 102, 97, .
CC1CCc2nn(CC(=O)NC3CCCCCC3)cc2C1 (stereo not drawn)
    84, 107, 82, -2
Cc1sc2ncc(C(=O)N3CCCC3)c(=O)n2c1C
    ., 105, ., -18
CC1CC(C)CN(C(=O)COC(=O)CCc2ccc(S(=O)(=O)N3CCOCC3)cc2)C1 (stereo not drawn)
    87, ., 95, -7
Cc1cccc(NC(=O)CSc2nc(=O)n(Cc3cccnc3)c3c2CCC3)c1C
    86, 103, 127, .
COC(=O)Cn1c(=O)oc2cc(S(=O)(=O)N3CCN(c4ccccn4)CC3)ccc21
    ., 102, ., 0
COc1ccc(NS(=O)(=O)c2ccc3c(c2)NC(=O)CCS3)c(OC)c1
    79, 99&110, 101, -6
Cn1nc(C(C)(C)C)cc1C(=O)Oc1ccc(Cl)cc1
    69, 103, 107, -1
COc1cc2c(cc1OC)C(C)N(C(=O)NC1CC(=O)N(c3ccc4c(c3)OCCO4)C1)CC2 (stereo not drawn)
    95, 101, 113, 15
O=C(CSc1ccccc1O)N1CCOCC1
    87, ., 86, -13
COc1ccc(C2CC(c3ccccc3)=NN2C(=O)Cn2cnc3c2c(=O)n(C)c(=O)n3C)cc1 (stereo not drawn)
    95, ., 106, -15
O=C(Cc1ccccc1O)c1ccccc1
    85, ., 100, -15
Cc1cccc(N2C(=O)C(Cc3ccccc3)N=C2N2CCN(C)CC2)c1 (stereo not drawn)
    ., 108, ., -22
O=C(CSCCOc1ccccc1F)Nc1ccnn1C1CCCC1
    94, ., 89, 0

As a working copy, 4 of the compounds above.
Fields – Sa growth 42C second temp, GIV Gai3 FP, Sa growth 42C, HCMV UL50-53 inh
COc1ccccc1OC(=O)NC(C)C
    93, 104, 83, 8
Cc1ccc(NC(=O)CCNS(=O)(=O)c2cccc3nsnc23)cc1
    89, 101, 89, -100
CCN1C(=S)NC2c3cc(C)ccc3OC13CCCC23 (stereo not drawn)
    90, 100, 99, .
Cc1nc2c(c(C)c1CCC(=O)NCCc1ccccc1)c(=O)n(C)c(=O)n2C
    ., 99, ., -35

(more compounds)
Fields – Sa growth 42C second temp, GIV Gai3 FP, Sa growth 42C, HCMV UL50-53 inh
Cc1ccccc1OC(=O)CSc1nc(-c2ccccc2)nc2cc(=O)[nH]n12
    ., 102, ., -3
COc1ccc(-c2n[nH]c(=S)n2/N=C/c2ccccc2Br)cc1OC
    97, 108, 118, 1
COc1ccc2oc(/C=C/N(C)C)c(C(=O)c3ccc(Br)cc3)c2c1
    84, ., 86, -8
CCOc1ccc(/C=C(\C#N)c2nc(-c3cc4c(ccc5ccccc54)oc3=O)cs2)cc1
    ., 105, ., -7
CN(C)c1ccc(C(CNS(C)(=O)=O)N2CCCC2)cc1 (stereo not drawn)
    99, 101, 100, 5
Cc1cccc(C)c1NC(=O)Cn1c(=O)n(Cc2ccc3c(c2)OCO3)c(=O)c2oc3ccccc3c21
    95, 107, 127, .
CC(C)OC(=O)NCCN1C(=O)C2C3C=CC(C3)C2C1=O (stereo not drawn)
    92, 102, 100, 1
CC(C)(C)C(=O)CSc1nnc2n(-c3ccccc3)c(=O)c3ccccc3n12
    90, ., 93, 3
Cc1cc(C)nc(NC(c2ccc(Cl)cc2)c2c(NC(=O)c3ccccc3)sc(C)c2C)n1 (stereo not drawn)
    ., 106, ., -20
Cn1cnc(S(=O)(=O)N2CCC(C(=O)NC3CCCc4ccccc43)CC2)c1 (stereo not drawn)
    ., 103, ., -24
O=C(CC1SC(=Nc2ccccc2)N(c2ccccc2)C1=O)Nc1ccc([N+](=O)[O-])cc1 (stereo not drawn)
    ., 102, ., -24
COc1ccc(S(=O)(=O)Nc2c(-n3cnnc3)nn(C)c2C)cc1OC
    ., 95, ., -16
Cc1ccc(NC(=O)Nc2nnc(N(CC(C)C)CC(C)C)s2)cc1Cl
    94, 103, 103, 0
Cc1ccc2c(CN3CCN(Cc4ccccc4Cl)CC3)cc(=O)oc2c1
    87, 97, 105, -11
COc1cc(C(=O)N2CCN(CC(=O)Nc3ccc(Cl)c(C(F)(F)F)c3)CC2)cc(OC)c1OC
    96, ., 84, 1
O=C(NCc1ccccc1)c1ccc(COc2ccccc2Br)o1
    74, 107, 91, -34
O=c1/c(=C/C=C/c2ccccc2)sc2nc3ccccc3n12
    86, ., 99, -10
Cc1nn(C2CCS(=O)(=O)C2)c(Cl)c1/C=C1\C(=O)N(C)C(=S)N1C (stereo not drawn)
    93, ., 97, -35
Cc1cc(OCC(=O)Nc2onc3c2CC(C)CC3)cc(C)c1Cl (stereo not drawn)
    ., 105, ., 2
Cc1cccc(-n2ccnc2SCC(=O)NC2CCCCC2)c1
    85, 104, 124, .
CS(=O)(=O)Nc1ccc(C2=NN(C(=O)CCC(=O)O)C(c3ccc(F)cc3)C2)cc1 (stereo not drawn)
    ., 102, ., -55
Cc1ccc(COc2cc(C(=O)NCC3CCCO3)c3ccccc3n2)cc1 (stereo not drawn)
    ., 103, ., -24
Cc1nn(-c2ccccc2)c2sc(C(=O)N3CCCCC3)cc12
    75, ., 66, 7
Cc1ccccc1OCC(=O)Nc1nnc(S(=O)(=O)N2CCCC2)s1
    75, 107, 96, 2
Cc1cc(NC(c2cccnc2)c2ccc3cccnc3c2O)no1 (stereo not drawn)
    79, ., 63, -46
Cc1occc1-c1nnc2sc(-c3ccccn3)nn12
    ., 108, ., -20
O=C(Nc1ccc(Cl)cc1Cl)c1cc(S(=O)(=O)N2CCc3ccccc32)ccc1F
    94, 108, 108, .
CCCNC(=O)CSc1n[nH]c(=S)s1
    96, ., 106, 1
NS(=O)(=O)c1ccc(NC(=O)CN2C(=O)S/C(=C/c3ccccc3)C2=O)cc1
    ., 105, ., -22
CN1C(=O)C2(OCC(COc3ccc(Cl)cc3)O2)c2ccccc21 (stereo not drawn)
    99, 105, 100, -9
Cc1ccc(C(=O)N2CCN(c3cc(N(C)C)nc(C)n3)CC2)cc1
    ., 100, ., -31
COc1ccc(NS(=O)(=O)c2cc3c(cc2Cl)NC(=O)CO3)c(OC)c1
    87, 103, 84, -7
CN1CCC(=NNC(=O)CN(c2ccccc2)S(=O)(=O)c2ccccc2)CC1
    89, 99, 100, -2
O=C(c1cccc(-c2noc(-c3cncc(Br)c3)n2)c1)N1CCCC1
    ., 94, ., -3
CC1Cc2cc(S(=O)(=O)CCC(=O)Nc3ccc(OC(F)(F)F)cc3)ccc2N1C(=O)C1CC1 (stereo not drawn)
    97, 101, 103, .
O=C(O)c1ccc[nH]c1=S
    83, 99, 98, -14
O=C(O)c1cc2ccc3cccc4ccc(c1)c2c34
    97, 104, 109, .
CC1=NN(c2ccc(C)c(C)c2)C(=O)/C1=C/c1ccc(-c2ccc3c(c2)C(=O)NC3=O)o1
    85, 108, 95, -44
CCc1ccccc1NC(=O)CSc1nc2c(oc3ccccc32)c(=O)n1-c1ccccc1
    83, 100, 94, -32
Cc1cccc(N2CCN(CCNC(=O)c3cc4c(s3)CS(=O)(=O)C4)CC2)c1C
    78, 121, 98, .
O=C(NC1CCCCC1)c1ccc2nsnc2c1
    86, 101, 100, -72

Profiles, looked up by structure:
Results for `CC1=NN(c2ccc(C)c(C)c2)C(=O)/C1=C/c1ccc(-c2ccc3c(c2)C(=O)NC3=O)o1` = Sa growth 42C second temp: 85; GIV Gai3 FP: 108; Sa growth 42C: 95; HCMV UL50-53 inh: -44
Results for `COc1ccccc1NC(=O)CSc1ncc2c(n1)-c1cc(Cl)ccc1N(C)S2(=O)=O` = Sa growth 42C second temp: 80; GIV Gai3 FP: 103; Sa growth 42C: 98; HCMV UL50-53 inh: .
Results for `Cc1cc(C(=O)OCC(=O)Nc2ccccc2C(=O)NC(C)c2ccccc2)no1` (stereo not drawn) = Sa growth 42C second temp: 89; GIV Gai3 FP: .; Sa growth 42C: 97; HCMV UL50-53 inh: -3
